LT uptake inh: qHTS Assay for Anthrax Lethal Toxin Internalization. Cells, anthrax lethal toxin internalization, FRET ratio (460/530). Potency, µM (titrated, usually from 40 µM), for the others: top-dose activity change, negative = inhibition, most hits filed as inhibitors. hit rate 0.67% among 70,000; active = well fitted falling ratio curve with the 530 nm signal flat; inconclusive = other ratio curves, or a change in one channel alone; inactive = flat curves in the ratio and both channels; the % refers to the ratio; note: % is set by controls: 0 for no effect and ±100 for the full control effect; nearly all actives have a fitted effect of over 50% in size; tested in ME-180 cells; beta-lactamase reporter
SmPrx2 inh: Schistosoma Mansoni Peroxiredoxins (Prx2). hit rate 0.07% among 65,000. AID 448, 2006. Potency, µM. S. mansoni Prx2 activity coupled to TGR/GSH (TGR is thioredoxin glutathione reductase), NADPH fluorescence loss, qHTS; some inactives read as strong as hits; active means full or partial inhibition curve with a strong effect at the top dose; inconclusive means weaker partial or single-point curve; inactive means no accepted curve; note: series up to 57 µM; many of its hits are not listed in these tables
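Purified S. mansoni TGR and Prx2 in pH 7.4 phosphate buffer with EDTA and Tween-20 were preincubated with compounds for 15 min. Further NADPH/GSH was added, then a 2.5 mM H2O2 aliquot initiated turnover, followed kinetically by NADPH fluorescence.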
The depositor's hits bear a star; ? = inconclusive; / = no result given; & = joins results of further samples; [ ] = remark or other dose. Potency is the fitted concentration of half-maximal effect. These rows are one share of the data. The share of hits here may be higher or lower than overall.

no. | canonical_smiles | LT uptake inh | SmPrx2 inh
1 | O=C(NC(NC1CCS(=O)(=O)C1)C(=O)c1ccccc1)c1ccc(Cl)cc1 (centres undefined) | 6% | >57
2 | O=C1C2C3C=CC(CO)(O3)C2C(=O)N1c1ccccc1-c1ccccc1 (centres undefined) | ? | >57
3 | COc1cccc(NC(=O)Cc2ccccc2)c1 | -16% | /
4 | CN(c1nc2c(c(=O)n(C)c(=O)n2C)n1CC(=O)c1ccccc1)C1CCCCC1 | -3% | >57
5 | CCCCN1C(=O)C2C(c3ccc(OC)cc3O)NC(CC(C)C)(C(=O)O)C2C1=O (centres undefined) | -6% | >57
6 | CC(C)(C)n1nnnc1C(c1cccnc1)N1CCN(C2CCCCC2)CC1 (centres undefined) | 4% | >57
7 | CN(C(=O)c1ccccn1)c1nnc(-c2cccnc2)s1 | -2% | >57
8 | C[C@@H]1O[C@H](O[C@@H]2[C@H](C)O[C@H](O[C@@H]3[C@H](C)O[C@H](O[C@H]4CC[C@]5(C)[C@@H](CC[C@@H]6[C@H]5C[C@@H](O)[C@]5(C)[C@@H](C7=CC(=O)OC7)CC[C@]65O)C4)C[C@@H]3O)C[C@@H]2O)C[C@H](O)[C@@H]1O | ? | >57
9 | Cc1cc(-c2nnco2)c(C)n1-c1ccc(F)cc1 | ? | >57
10 | O=C(CCn1nc(-c2ccccc2)ccc1=O)N1CCN(c2ccccn2)CC1 | 8% | >57
11 | CCOC(=O)c1ccccc1NC(=O)COC(=O)c1ccc(C)c(S(=O)(=O)N2CCOCC2)c1 | -10% | >57
12 | Cc1ccc2[nH]c(=O)c(CN(Cc3ccco3)C(=O)c3cccs3)cc2c1 | 0% | >57
13 | O=C(CCSc1ccccc1)NCCSc1ccccn1 | -9% | /
14 | CCOc1ncccc1C(=O)NCC1COc2ccccc2O1 (centres undefined) | 6% | >57
15 | CCc1c(C)c2cc(Cl)c(O)c(CN(C)C)c2oc1=O | ? | /
16 | Cc1ccc([N+](=O)[O-])c(N)c1 | -5% | /
17 | CC(C)CCNC(=O)c1ccc2c(c1)N(Cc1ccccc1)C(=O)CS2=O (centres undefined) | 2% | >57
18 | COC(=O)c1ccccc1NC(=O)N1CSC[C@H]1C(=O)OC | ? | >57
19 | O=C1[C@H]2[C@H]3[C@H](O)[C@H](O)C/C(=N/OC[C@@H](O)COCc4ccco4)[C@H]3CC[C@@H]2C(=O)N1C1CCCCC1 | ? | /
20 | CCOc1ccccc1NC(=O)CCS(=O)(=O)c1cccc2nonc12 | -1% | >57
21 | CCOc1ccccc1O[C@@H](c1ccccc1)[C@@H]1CNCCO1 | 1% | >57
22 | NCC#Cc1ccccc1 | 1% | >57
23 | Cc1ccccc1-c1cncnc1N1CCNCC1 | 7% | >57
24 | CN(C)c1ccc(-c2nnn(CC(=O)N3c4ccccc4CCc4ccccc43)n2)cc1 | -21% | >57
25 | COc1ccc(-c2csc(NCc3ccco3)n2)cc1C | ? | /
26 | COc1ccc(N2CCN(C(c3cccs3)C(C)NS(=O)(=O)c3ccccc3)CC2)cc1 (centres undefined) | 3% | >57
27 | Cc1ccc(C)c(OCC(=O)Nc2ccc3c(c2)OCO3)c1 | -14% | >57
28 | CCOC(=O)c1ccccc1NC(=O)CSc1nnc(COc2ccccc2C)n1C | -4% | >57
29 | O=C(COc1ccc(-n2cnnn2)cc1)NC(=O)NCc1ccccc1 | -11% | >57
30 | COCCOC(=O)C1=C(C)N=C2SCCC(=O)N2C1c1cc(Br)ccc1OC (centres undefined) | 5% | >57
31 | CC[C@H](CC[C@H](C)[C@@H]1CC[C@@H]2[C@H]3CC=C4C[C@@H](O)CC[C@]4(C)[C@H]3CC[C@]21C)C(C)C | -8%[3.58 µM] | >57
32 | O=C(CSc1nnc2ccccn12)NC(=O)NC1CCCC1 | ? | >57
33 | CCn1cc(C(=O)NC2CCCCCC2)c2cc(OC)c(OC)cc2c1=O | 0% | >57
34 | CCCNC(=O)c1c(N)n(Cc2ccc3c(c2)OCO3)c2nc3ccccc3nc12 | ? | >57
35 | CC1CCCN(c2nc3ccccc3nc2C(C#N)C(=O)OC2CCCCC2)C1 (centres undefined) | 10% | >57
36 | Cc1nc(N)nc(C)c1Cc1ccccc1 | -4% | >57
37 | Cc1ccc(N(CC(=O)N2CCN(C3CCCCC3)CC2)S(=O)(=O)c2cccnc2)cc1 | 8% | >57
38 | CCN(CC)C(=O)C1CCCN(Cc2ccccc2F)C1 (centres undefined) | -9% | /
39 | Oc1ccccc1C1Nc2cccc3cccc(c23)N1 | ? | >57
40 | Cc1ccccc1N1C(=O)CC(=O)NC1=O | -8% | >57
41 | CCc1cc(=O)oc2c(C)c(O)c(CN(C)C)cc12 | ? | /
42 | O=C1OCC(c2ccccc2)=C1c1ccc(S(=O)(=O)N2CCOCC2)s1 | 4% | >57
43 | N#Cc1nc(-c2ccco2)oc1NCCCN1CCOCC1 | ? | >57
44 | CCN(CC)S(=O)(=O)c1cccc(-c2nnc(SCCOc3ccccc3)o2)c1 | ? | >57
45 | CC1(C)CC(=O)C2=C(C1)OC(N)=C(C#N)C2c1cccc(OC(=O)c2ccco2)c1 (centres undefined) | ? | >57
46 | Cc1nn(C)c(C)c1S(=O)(=O)N1CCCC(C(=O)NCCc2ccc(Cl)cc2)C1 (centres undefined) | -12% | >57
47 | Cc1nc2sc(C(c3cccs3)N3CCOCC3)c(O)n2n1 (centres undefined) | ? | >57
48 | CSc1ccccc1NS(=O)(=O)c1ccccc1 | 12% | >57
49 | CN(Cc1ccccc1)C(=O)CN(C1CCCCC1)S(C)(=O)=O | / | >57
50 | COc1ccc(-c2cc(C(=O)NCCN3CCOCC3)c3ccccc3n2)cc1 | 2% | >57
51 | Cc1ccccc1-n1c(=O)c2ccccc2n2c(=O)[nH]nc12 | 1% | >57
52 | CC1CC2(C)Oc3ccccc3C3OCC1(CO)C(C)C32 (centres undefined) | -9% | >57
53 | COc1ccc(C2(NC(C)=O)CCN(C(=O)c3ccco3)CC2)cc1 | -12% | >57
54 | CC(=O)Nc1ccc(NS(=O)(=O)Cc2ccccc2)cc1 | -3% | >57
55 | COc1ccc(C)cc1NC(=O)COCC(=O)O | -1% | >57
56 | CCOC(=O)C1=C(C)OC(N)=C(C(=O)OCC)C12C(=O)Nc1ccc(Br)cc12 (centres undefined) | -22% | >57
57 | CC(=O)OC[C@@H]1O[C@@H](O/N=C2/C[C@@H](O)[C@@H](O)[C@@H]3[C@@H]4C(=O)N(c5cccc(Oc6ccccc6)c5)C(=O)[C@H]4CC[C@H]23)[C@H](OC(C)=O)[C@H](OC(C)=O)[C@@H]1OC(C)=O | -4%[0.32 µM] | /
58 | Cc1ccc(/C(C#N)=C\c2cn(C)c3ccccc23)cc1 | 7.9µM* | >57
59 | CCOC(=O)Nc1ccc(C(=O)NCC2CCCO2)cc1 (centres undefined) | 19% | >57
60 | O=c1nc2s/c(=C\c3ccco3)c(=O)n2nc1Cc1ccccc1 | -11% | /

Single records, as listed above. Order of screens: LT uptake inh	SmPrx2 inh
Results for CCc1cc(=O)oc2c(C)c(O)c(CN(C)C)cc12 → ?	/
Results for O=c1nc2s/c(=C\c3ccco3)c(=O)n2nc1Cc1ccccc1 → -11%	/
Results for Cc1nn(C)c(C)c1S(=O)(=O)N1CCCC(C(=O)NCCc2ccc(Cl)cc2)C1 (centres undefined) → -12%	>57
Results for O=C1OCC(c2ccccc2)=C1c1ccc(S(=O)(=O)N2CCOCC2)s1 → 4%	>57

Five structures out of the list, sorted by formula weight, lowest first.
no. | canonical_smiles | LT uptake inh | SmPrx2 inh
54 | CC(=O)Nc1ccc(NS(=O)(=O)Cc2ccccc2)cc1 | -3% | >57
60 | O=c1nc2s/c(=C\c3ccco3)c(=O)n2nc1Cc1ccccc1 | -11% | /
49 | CN(Cc1ccccc1)C(=O)CN(C1CCCCC1)S(C)(=O)=O | / | >57
50 | COc1ccc(-c2cc(C(=O)NCCN3CCOCC3)c3ccccc3n2)cc1 | 2% | >57
45 | CC1(C)CC(=O)C2=C(C1)OC(N)=C(C#N)C2c1cccc(OC(=O)c2ccco2)c1 (centres undefined) | ? | >57

Going on with the list:
no. | canonical_smiles | LT uptake inh | SmPrx2 inh
61 | COc1ccc(OC2C(O)COC2/C=C/c2ccccc2)cc1 (centres undefined) | -5%&-10%[8 µM] | /
62 | COc1ccc(CNC(=O)c2nnn(Cc3ccc(OC)cc3)c2N)cc1 | -8% | >57
63 | COc1ccccc1-n1c(SCC(=O)Nc2ccc3c(c2)OCO3)nc2c(c1=O)SCC2 | -12% | >57
64 | CCOC(=O)C1C(=O)OC(C)(C)C1C(C)C(=O)c1ccc(OC)cc1 (centres undefined) | ? | >57
65 | CCN(CC)S(=O)(=O)c1cccc(-c2nnc(SCCCC(=O)c3ccccc3)o2)c1 | / | >57
66 | O=c1cc(N2CCC3(CC2)OCCO3)[nH]c(=O)n1-c1ccc(Cl)cc1 | -15% | >57
67 | O=C(Nc1ncnc2c1ncn2C1OC(COC(=O)c2ccccc2)C(F)C1O)c1ccccc1 (centres undefined) | ? | >57
68 | Cc1cc(NC(=O)COc2ccc3oc4ccccc4c3c2)no1 | -3% | >57
69 | Oc1ccc([C@H](O)[C@@H]2CCCCN2)cc1O | 5%[8 µM] | >57
70 | CCOCCCn1c(SCC(=O)NC(C)C)nc2ccccc2c1=O | 12% | >57
71 | COC(=O)c1ccccc1NC(=O)CN(C1CCCCC1)S(C)(=O)=O | -8% | >57
72 | COC(=O)CNC(=O)CNC(=O)Nc1ccccc1 | -6% | >57
73 | c1ccc2c(c1)oc1c(N3CCN(Cc4ccc5c(c4)OCO5)CC3)ncnc12 | ? | >57
74 | COc1ccc(N2CCN(CCCNC(=O)CCCn3c(=O)[nH]c4ccsc4c3=O)CC2)cc1 | 5% | >57
75 | Cc1cc(C(=O)CN2C(=O)NC(Cc3c[nH]c4ccccc34)C2=O)c(C)n1C (centres undefined) | -25% | >57
76 | CNC(=O)[C@@]1(C)C=C[C@@H](Cc2ccccc2)N1C(=O)OC | -5% | /
77 | Cc1ccc2nc(CSc3nnc(-c4ccco4)o3)cc(=O)n2c1 | -6% | >57
78 | CCOC(=O)c1c(C)[nH]c(C)c1C(=O)COc1ccc(NC(=O)c2ccco2)cc1 | -24% | >57
79 | CO[C@@H]1COC(=O)C/C=C\[C@@H](C)COC(=O)[C@H](Cc2ccccc2)NC(=O)C/C=C\[C@H]1C | 7%[8 µM] | /
80 | CCOc1ccc(N2C(=O)CCC2=O)cc1 | 2% | >57
81 | N#CN=C(N)c1ccccc1 | -2% | >57
82 | CC1CCN(C(=O)CSc2nnc(-c3ccco3)o2)CC1 | 3% | >57
83 | O=C1c2ccccc2C(=O)N1CCCCSc1nnc(-c2ccc(OC(F)F)cc2)o1 | -15% | >57
84 | COc1ccc(-n2c(C)cc(C(=O)COc3ccc(-n4cnnn4)cc3)c2C)cc1 | 2% | >57
85 | N#CSCSC#N | ? | /
86 | COc1cccc(-c2nc(NCc3ccccc3)c3ccccc3n2)c1 | -33% | >57
87 | COc1cc2[nH]c3c(N4CCC(C(N)=O)CC4)ncnc3c2cc1OC | -3% | /
88 | O=C(/C=N/O)NCCCCNC(=O)/C=N/O | -19%[8 µM] | /
89 | CC(C)c1nnc(NC(=O)C2CCCN2S(=O)(=O)c2ccc(Cl)cc2)s1 (centres undefined) | 17% | >57
90 | COC(=O)c1ccccc1NS(=O)(=O)c1ccc(O)c(C(=O)O)c1 | -7% | >57
91 | O=C1CSC(c2ccccc2F)N1c1cc(Cl)ccc1O (centres undefined) | 15% | >57
92 | CC1=C/C(=C\c2ccc3c(c2)OCO3)C(=O)S1 | ? | >57
93 | CC1CCCC(C)N1C(=O)CSc1nnc(C2CCCCC2)o1 (centres undefined) | -11% | >57
94 | C=CCn1c(SCC(=O)Nc2sc(C)c(C)c2C(=O)OCC)nnc1-c1sc(N)nc1C | 25% | >57
95 | CCOC(=O)N1CCN(C(=O)c2ccc3c(c2)N(CC)CCS3)CC1 | 10% | >57
96 | CC1CCC(C(C)C)C(OC(=O)COC(=O)c2ccc(=O)[nH]c2)C1 (centres undefined) | 13µM* | >57
97 | CC1(C)CC(=O)C2=C(C1)OC(N)=C(C#N)C2Cc1ccccc1 (centres undefined) | ? | /
98 | COc1cccc(N2C(=O)C3CCCN3C2c2ccc(N(C)C)cc2)c1 (centres undefined) | -6% | >57
99 | CCCNC(=O)c1c(N)n(-c2cccc(OC)c2)c2nc3ccccc3nc12 | ? | >57
100 | Cc1csc(NC(=O)CSc2nc(C)nc3c2c(=O)n(C)c(=O)n3C)n1 | -15% | >57
101 | N#CC1=C(N)Oc2n[nH]c(-c3ccccc3)c2C1c1cccnc1 (centres undefined) | -11% | >57
102 | CCCCCOC(=O)C1=C(C)N(C)C(=O)NC1c1cc(Br)c(O)c(OC)c1 (centres undefined) | ? | /
103 | Cc1cc(-n2c(C)cc(C(=O)CSc3nnc4sc5ccccc5n34)c2C)no1 | ? | >57
104 | CCSc1nc(=S)n(CC)c(C)c1C(C)=O | / | >57
105 | Cc1ccccc1OC1C=CC(C#Cc2ccc(Br)cc2)OC1CO (centres undefined) | -4%[8 µM] | /
106 | CN1C(=O)SC(Nc2ccccc2C(=O)O)C1=O (centres undefined) | 18% | >57
107 | Cc1cc(C(F)(F)F)nc(SCC(=O)Nc2cc(C)on2)n1 | -20% | /
108 | CCOC(=O)c1sc(NC(=O)CCn2nnc3ccccc32)c(C(=O)OCC)c1C | -22% | >57
109 | Cc1cc(Oc2ccccc2)nc(-c2ccccc2)n1 | -22% | /
110 | O=C(CSc1ncn[nH]1)Nc1ccc(Cl)c(Cl)c1 | 25% | >57
111 | Cc1c(NC(=O)c2cnn3c(C(F)(F)F)cc(-c4ccco4)nc23)c(=O)n(-c2ccccc2)n1C | 4% | /
